StopGo RLuc: FMDV 2A StopGo reporter, Renilla signal | 0.32% of 120,000 active | HEK cells with a luciferase reporter of 2A StopGo recoding | AID 1745857 | Potency, µM (highest dose often 57.5 µM), inactives show top-dose signal change, negative = less light; active means well fitted falling curve with a large enough effect; inconclusive means small, poorly fitted or top-dose-only effect; inactive means no such curve, though single readings can be large or run the other way; also: nearly all actives have a fitted effect of over 55% in size; overnight with compound
StopGo FLuc: lowers the firefly signal of an FMDV 2A StopGo reporter; HEK cells with a luciferase reporter of 2A StopGo recoding; AID 1745856; 0.23% of 120,000 active; Potency, µM (titrated, usually from 57.5 µM), without a hit: at the highest dose signal change, negative = less light; active = well fitted falling curve with a large enough effect; inconclusive = small, poorly fitted or top-dose-only effect; inactive = no such curve, though single readings can be large or run the other way; also: nearly all actives have a fitted effect of over 60% in size; overnight with compound
* hit, by the source's call; ? = inconclusive; [ ] = another dose, or the depositor's remark. % is scaled to controls: 0 for no effect and ±100 for the full control effect; potency is read from the fitted curve at half-maximal effect. The list is partial, so the mix of outcomes need not match the whole.

Results follow in this order: StopGo RLuc | StopGo FLuc
> Cc1cc(C)n2nc(C(=O)OCC(=O)N(C)C3CCS(=O)(=O)C3)nc2n1 (centres undefined)
    -5% | 7%
> N#Cc1nc(COc2ccc(Cl)cc2)oc1NCc1ccc(F)cc1
    2% | 0%
> O=C(NCc1ccccc1Cl)c1c2c(nc3ccccc13)C(=O)N(C1CCCCC1)C2
    4% | -18%
> CCCC(CCC)C(=O)Nc1cccc(-c2cn3cccnc3n2)c1
    0% | -15%
> CCN(C(=O)c1cc2c(=O)oc3ccc(C)cc3c2s1)c1ccccc1C
    -2% | -18%
> CCc1ccc(C(=O)COC(=O)C(NC(=O)c2ccccc2C)C(C)C)cc1 (centres undefined)
    12% | 0%
> O=C(CSc1nnc(-c2ccc(Cl)cc2)o1)c1ccc([N+](=O)[O-])cc1
    1% | 4%
> COc1ccc(S(=O)(=O)NCCc2sc(C)nc2C)cc1F
    111%[activator] | -24%
> COc1ccc(S(=O)(=O)Nc2ccc(CCc3nc4ccc(C)cc4[nH]3)cc2)cc1
    0% | ?
> CC(Nc1ccc([N+](=O)[O-])cn1)c1ccc(C(F)(F)F)cc1 (centres undefined)
    24% | 8%
> COc1ccc(OC)c(S(=O)(=O)NCCc2sc(-c3ccc(C)cc3)nc2C)c1
    287%[activator] | 59%[activator]
> CC(=O)c1c(Cl)nc2ccccc2c1-c1ccccc1
    11% | 15%
> Cc1ccc(N2CCN(c3nc4ccccc4n4nnnc34)CC2)c(C)c1
    -6% | 2%
> COc1ccccc1NC(=O)c1sc2nc(-c3cc4ccccc4oc3=O)[nH]c(=O)c2c1C
    -11% | -15%
> C/C(=N\Nc1ccc(F)cc1)c1sc2ccc(Cl)cc2c1C
    15% | 0%
> O=C(Cc1cccs1)N(Cc1ccc2[nH]ccc2c1)C1CC1
    ? | ?
> CCC(Sc1nc2nccnc2c(=O)n1Cc1ccc(OC)cc1)C(=O)NC1CCCCC1 (centres undefined)
    43%[activator] | -5%
> CCc1cccc(NC(=O)c2ccc3c(c2)NC(=O)CS3)c1
    -5% | 0%
> CCc1nc2ccccc2c(NC(=O)CN(CC)CC)c1C
    -10% | 0%
> COCCCNC(=O)c1ccc(-c2nc(CS(=O)(=O)c3ccccc3)c(C)o2)cc1
    -1% | 2%
> CCc1nc2ccc(C(=O)NCc3cccc(Br)c3)cc2nc1CC
    62%[activator] | 46%[activator]
> COc1cccc(-c2nc(CS(=O)(=O)CC(=O)NCc3ccc(C)cc3)c(C)o2)c1
    -8% | -15%
> COc1ccc(NC(=O)CCS(=O)(=O)c2nc(-c3cccs3)cc(C(F)(F)F)n2)cc1
    -3% | 8%
> c1ccc(C(c2cccs2)c2c[nH]c3ccccc23)cc1 (centres undefined)
    22% | 33%[activator]
> CC(C)(C)CC(=O)NC(c1ccccc1)c1ccccc1
    10% | 13%
> Cc1ccc(NC(=O)Cn2c(=O)n(-c3ccc(CC(=O)NCC4CCCO4)cc3)c(=O)c3ccccc32)cc1 (centres undefined)
    -9% | -6%
> CC(=O)c1ccc(NS(=O)(=O)c2ccc(Br)s2)cc1
    201%[activator] | 21%
> Cc1ccc(-n2nnc(S(=O)(=O)c3ccc(Cl)cc3)c2C)cc1F
    32%[activator] | -5%
> Cc1cccc(Cn2nnc(C(=O)Nc3cc(C)ccc3C)c2N)c1
    43%[activator] | -5%
> Cc1ccc(OCC(=O)N(C)CC(=O)Nc2c(C)cccc2C)c(Br)c1
    18% | 20%

(list continues)
Results follow in this order: StopGo RLuc | StopGo FLuc
> COc1ccc(OC)c(NC(=O)Cc2cnc(-n3cccc3)s2)c1
    46%[activator] | -1%
> CCOC(=O)c1cccc(NC(=O)CN2C(=O)CC(C)(C)Sc3ccccc32)c1
    7% | 14%
> CCN(CC)S(=O)(=O)c1ccc2c(c1)CC(C(=O)NCCc1ccc(Cl)cc1)N2C(C)=O (centres undefined)
    87%[activator] | -5%
> Cc1csc(/C(C#N)=C\c2ccccc2OC(F)(F)F)n1
    10% | 3%
> Clc1cc2c(cc1Cn1nnc(-c3ccncc3)n1)OCO2
    ? | -4%
> CCC(C)NC(=O)CCc1c(C)nc2c(c(OC)nn2C)c1C (centres undefined)
    6% | 0%
> Cc1ccc(C)c(C(=O)COC(=O)c2cc(=O)c3ccccc3o2)c1
    -5% | 63%[activator]
> CN(C)C(=O)CN1C(=O)c2ccccc2C1c1cn(C)c2ccccc12 (centres undefined)
    4% | 3%
> COc1ccccc1Cn1cc(C(=O)c2ccccc2)c(=O)c2cc(OC)c(OC)cc21
    -2% | -15%
> CCCCNC(=O)C1CCN(C(=O)N2CC(C)Oc3ccc(Cl)cc32)CC1 (centres undefined)
    -5% | -6%
> COc1ccc(CNC(=O)CSc2ncc3c(n2)-c2cc(Cl)ccc2N(Cc2ccccc2)S3(=O)=O)cc1
    -7% | -14%
> COc1ccc(-c2coc3cc(OCC(=O)NCc4cccc(Cl)c4)ccc3c2=O)cc1OC
    7% | 15%
> O=C(COc1ccc(Cl)cc1Cl)N1CCNC1=O
    6% | 139%[activator]
> CCn1c(NC(=O)COc2ccc(C)cc2)nc2ccccc21
    19% | 8%
> N#Cc1nc(C2CC2)oc1N1CCN(C(=O)c2ccc(F)cc2F)CC1
    -13% | -10%
> Cc1cc(C)c(NC(=O)CCl)c(C)c1
    ? | -6%
> O=C(NC1CCN(Cc2nnnn2-c2ccccc2)CC1)C1CC1
    -3% | 1%
> Oc1cccc(-c2nc3ncccn3c2Nc2cccc(C(F)(F)F)c2)c1
    5% | -13%
> COc1ccc(C23CC4CC(C2)CC(c2ccc(OC)c(C(=O)NC(c5ccccc5)c5ccccc5)c2)(C4)C3)cc1C(=O)NC(c1ccccc1)c1ccccc1
    8% | 8%
> COc1ccccc1N(CC(=O)Nc1ccc2c(c1)OCO2)S(=O)(=O)c1ccc(C)cc1
    343%[activator] | 53%[activator]
> CCCCCc1coc2cc(O)ccc2c1=O
    17% | 0%
> CCOC(=O)C(CC)Sc1ncnc2sc3c(c12)CCCC3 (centres undefined)
    -3% | 13%
> Cc1ccc(CNC(=O)CCCCn2c(=O)c3ccccc3n(Cc3c(C)cc(C)cc3C)c2=O)cc1
    -6% | -15%
> COc1ccc(NC(=O)c2nc3ccccc3nc2OC)cc1OC
    -19% | 0%
> CCOc1ccccc1NC(=O)Cn1c(=O)n(CCCC(=O)NCCOC)c(=O)c2cc(OC)c(OC)cc21
    -9% | -20%
> O=C(CCc1ccco1)NCC1CC1
    3% | -1%
> COC(=O)c1ccccc1NC(=O)CN(c1ccc(Cl)cc1)S(=O)(=O)c1ccc(OC)cc1
    -11% | -3%
> COc1ccc(C)cc1Nc1nc(-c2cccc(Cl)c2)c2c(n1)-c1ccccc1OC2
    -9% | -14%
> Cc1ccc(CNC(=O)CSc2nc3ccsc3c(=O)n2CCC(C)C)cc1
    25% | 12%
> CCc1ccc(OC(=O)c2sc3ncn(Cc4cccc(F)c4)c(=O)c3c2C)cc1
    15% | 31%

Other results.
Results follow in this order: StopGo RLuc | StopGo FLuc
> COc1ccccc1C1=NS(=O)(=O)N(C)C(C(=O)Nc2cc(OC)c(OC)c(OC)c2)=C1
    39%[activator] | -9%
> Cc1cc(C)cc(NC(=O)N2CCC(CN3CCc4ccccc4C3)CC2)c1
    -11% | -9%
> CCCCCCn1c(SCC(=O)Nc2ccccc2)nc2c1c(=O)[nH]c(=O)n2C
    12% | 13%
> COc1ccc(-c2nc(CSCC(=O)N(C)c3ccccc3)co2)cc1
    -22% | 50%[activator]
> COc1ccc(-c2noc(N3CCC(C(=O)Nc4cccc(C)c4C)CC3)n2)cc1
    5% | -12%
> COc1ccc(NC(=O)CCn2c(=O)c3cccn3c3ccccc32)c(OC)c1
    60%[activator] | -19%
> Cc1ccc(/C=C(/C#N)C(=O)C(C)C)cc1C
    14% | 12%
> CCC(C(=O)NC(C)(C)CC)c1ccccc1 (centres undefined)
    -5% | -7%
> Cc1ccc(CN(C)CC(=O)NC(C)c2ccc(C)c(C)c2)o1 (centres undefined)
    -3% | -4%
> N#CC(C(=O)CCc1ccccc1)C(=O)Nc1ccccc1Cl (centres undefined)
    58%[activator] | 21%
> COc1cccc(/C=C/c2nc3ccccc3c(=O)n2-c2ccc(Cl)cc2)c1OC
    -12% | -20%
> CN(C(=O)COc1ccc2c(-c3ccccc3)cc(=O)oc2c1)C1(C#N)CCCCC1
    ? | ?
> CC(=O)C(Sc1ccc(C)cc1)(Sc1ccc(C)cc1)C(C)=O
    -17% | 0%
> CCOC(=O)c1ccccc1NC(=O)CN(c1cc(C(F)(F)F)ccc1Cl)S(C)(=O)=O
    14% | -17%
> COc1ccc(-c2nc(CSCC(=O)Nc3cccc(F)c3)co2)cc1
    -15% | 18%
> Cc1nn2c(=O)cc(CSCC(=O)Nc3cccc4ccccc34)nc2s1
    6% | 10%
> COc1ccc(S(=O)(=O)NCCc2nnc3ccc(SCC(=O)Nc4cc(C)cc(C)c4)nn23)cc1
    2% | -26%
> COc1ccc2cc(CNC(=O)CNC(=O)c3cc(C)cc(C)c3)ccc2c1
    -3% | -3%
> O=C(Nc1cc(C(F)(F)F)ccc1Cl)c1noc2c1CCC2
    -13% | -18%
> CCN1CCc2c(sc3c2c(=O)n(-c2ccc(Cl)cc2)c(=O)n3CCN2CCCC2)C1
    -20% | -5%
> Cc1nn(C)cc1CNC(=O)Nc1ccc(Cl)c(Cl)c1
    26% | 208%[activator]
> CSc1ccc(C2C(C(=O)Nc3ccccc3)=C(C)Nc3nc4ccccc4n32)cc1 (centres undefined)
    -7% | -2%
> COCCNc1nc2c(S(=O)(=O)c3ccc(C)c(C)c3)nnn2c2ccc(Cl)cc12
    4% | -4%
> Cc1ccc(C)c(NS(=O)(=O)c2ccc(N3CC(C(=O)O)CC3=O)cc2)c1 (centres undefined)
    -2% | -2%
> O=C(Cc1c[nH]c2ccccc12)Nc1ccc2ccccc2c1
    59%[activator] | 96%[activator]
> COc1ccccc1NC(=O)C(CC(C)C)N1Cc2ccccc2C1=O (centres undefined)
    122%[activator] | 5%
> Cc1cccc(Cn2cc(/C=C(\C#N)C(N)=O)c3ccccc32)c1
    23% | 10%
> CN(Cc1ccccc1)C(=O)CSc1nc(-c2ccc(F)cc2)cc(C(F)(F)F)n1
    19% | -8%
> O=C(Nc1cc(-c2ccc(F)c(F)c2)no1)c1ccccc1F
    -9% | 98%[activator]
> COc1cc(Br)c(C2CC(=O)Nc3cc4c(cc32)OCO4)cc1OC (centres undefined)
    45%[activator] | -7%

Of the compounds above, these contain a cyano group:
Results follow in this order: StopGo RLuc | StopGo FLuc
> N#Cc1nc(COc2ccc(Cl)cc2)oc1NCc1ccc(F)cc1
    2% | 0%
> Cc1csc(/C(C#N)=C\c2ccccc2OC(F)(F)F)n1
    10% | 3%
> N#Cc1nc(C2CC2)oc1N1CCN(C(=O)c2ccc(F)cc2F)CC1
    -13% | -10%
> Cc1ccc(/C=C(/C#N)C(=O)C(C)C)cc1C
    14% | 12%
> N#CC(C(=O)CCc1ccccc1)C(=O)Nc1ccccc1Cl (centres undefined)
    58%[activator] | 21%
> CN(C(=O)COc1ccc2c(-c3ccccc3)cc(=O)oc2c1)C1(C#N)CCCCC1
    ? | ?
> Cc1cccc(Cn2cc(/C=C(\C#N)C(N)=O)c3ccccc32)c1
    23% | 10%

(next part)
Results follow in this order: StopGo RLuc | StopGo FLuc
> O=C(NCCn1cc(SCc2cccc(F)c2)c2ccccc21)c1cccc(C(F)(F)F)c1
    ? | ?
> c1ccc(OCc2nnc3sc(-c4ccccc4)nn23)cc1
    -12% | 26%
> Cc1cc(NC(=O)CCn2c(=O)c3cccn3c3cccnc32)ccc1Br
    -17% | -10%
> Cc1ccc2nc3c(c(Nc4ccccc4)c2c1)CCC3
    ? | ?
> O=C(Nc1cnc2ccccc2c1)c1ccc(Cl)cc1Cl
    -22% | -48%
> CCc1ccc(/C=N/N=C/c2ccc(CC)cc2)cc1
    11% | 61%[activator]
> CC1CCN(CC(=O)NCCC2=CCCCC2)CC1
    -1% | 0%
> Cc1ccc(Cl)cc1N1CCN(CCCNC(=O)c2ccc3nc(N4CCCCC4)sc3c2)CC1
    -4% | 52%[activator]
> COC(=O)c1cccc(COC(=O)c2ccc(CO)cc2)c1
    -4% | 36%[activator]
> Cc1ccc(C)c(NC(=O)c2cc(S(=O)(=O)N3CCc4ccccc4C3)ccc2F)c1
    -11% | -20%
> CCC(=O)NCC1CC2c3ccccc3C1c1ccccc12 (centres undefined)
    11% | 11%
> CC(=O)c1ccc(S(=O)(=O)N2CCn3cccc3C2c2ccc(C)cc2)cc1 (centres undefined)
    0% | -7%
> Cc1nc(SC(C)C(=O)NC2(C#N)CCCCC2)c2ccccc2n1 (centres undefined)
    -20% | -8%
> CCn1cc(CNC(=O)Nc2ccc(Cl)cc2)c(C)n1
    3% | 167%[activator]
> COc1ccc(C2=C(O)C(=O)N(Cc3ccc(C)cc3)C2c2ccc(F)cc2)cc1 (centres undefined)
    20% | 19%
> COc1ccc(C2C=C(c3ccccc3)Nc3nc(NC(=O)c4cccc([N+](=O)[O-])c4)nn32)cc1 (centres undefined)
    -7% | 11%
> Cc1ccc(CNCCc2cccs2)s1
    ? | -3%
> COc1ccc(Cl)cc1NC(=O)CCS(=O)(=O)c1nc(-c2cccs2)cc(C(F)(F)F)n1
    -28% | -17%
